TRPML1 agonist = human mucolipin-1 channel agonism; Q9GZU1; TRPML1-expressing cells, Ca2+ dye fluorescence, FDSS; host cell line not named in the record; reference of the full effect not given here; activation, % (no concentration beside the values); actives 0.12% (n = 410,000); AID 624414; in the data active = activation above about 50%; inconclusive = about 30% to 50%; inactive = below about 30%; also: 0% is about no effect; the text of the record puts the active cut at 80%
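Tet-induced TRPML1-DL cells, 1,500 per well, cultured overnight, were loaded with a no-wash Ca2+ dye for 45–90 min. Calcium fluorescence was recorded on the FDSS for 110 s after compound addition, before the EC80 agonist (4 uM 54-4) was added.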
Menin-MLL FL inh = inhibitors of human menin-MLL interaction, wild-type MLL peptide; Fluorescence polarization, fluorescein-MLL peptide displacement from menin; FP activity change, % at 61.4 µM; 290,000 tested, under 10 active; AID 1766; inconclusive = falling polarisation curve, or a change in total fluorescence; inactive = total fluorescence flat and polarisation flat or rising; no compound was filed as active; the % refers to the polarisation; negative = inhibition;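 also: % of control where 0% means no effect; inhibitors lower the polarisation; unlabelled MLL peptide was the positive control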
PINK1 expr mod = PINK1 expression modulation; PINK1 immunofluorescence, high-content cytometry, 24 h; actives 0.2% (n = 410,000); Potency, µM (highest dose often 76.6 µM), for the others: top-dose activation (PINK1 increase), most hits filed as activators; active = well fitted activation curve with a large enough effect; inconclusive = small, poorly fitted or top-dose-only effect; inactive = flat fitted curve, though single readings scatter; cell line not stated here;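 also: potency is read from the fitted curve at half-maximal effect; % of control where 0% means no effect; nearly all actives have a fitted effect of over 65% in size; a mitochondrial uncoupler was the plate control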
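PINK1 protein level read as immunofluorescence by microplate cytometer in a fixed, stained stable cell line after 24 h exposure to five compound concentrations, with CCCP as control.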
TRPML1 inh = human mucolipin-1 channel inhibition; Q9GZU1; TRPML1-inducible cells, Ca2+ dye fluorescence, FDSS; active compounds read low; inhibition of EC80 agonist-evoked calcium signal; activity change, negative = inhibition, % (no concentration beside the values); actives 0.02% (n = 390,000); AID 624415; in the data active means activity change below about -50%; inconclusive means about -30% to -50%; inactive means above about -30%;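 also: stimulus is agonist 54-4 at its EC80 concentration; % is scaled to controls: 0 for no effect and ±100 for the full control effect; compound concentration not given in the record; the text of the record puts the active cut at -80%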
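TRPML1-DL cells, Tet-induced overnight (~16 h, 37 °C) at 1,500 cells/well, were loaded with Ca8 no-wash dye plus quencher for 45-90 min at room temperature. Compounds were pinned during FDSS kinetic reading; agonist 54-4 at EC80 (4 uM final) then added.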
ClpP mod = qHTS Assay for Activators of ClpP; actives 1.9% (n = 340,000); AID 651965, 2013; ATP-dependent Clp protease proteolytic subunit (Bacillus subtilis (strain 168)), P80244; purified B. subtilis ClpP, FRET peptide cleavage, 20 min; Potency, µM (series often up to 57.5 µM), for the others: top-dose activity change, negative = active; active = well fitted falling curve with a large enough effect; inconclusive = small, poorly fitted or top-dose-only effect; inactive = no such curve, though single readings can be large or run the other way; also: potency is read from the fitted curve at half-maximal effect; the source files actives as falling curves though it sought activators and does not explain the sign; nearly all actives have a fitted effect of over 65% in size; many hits overshoot -100%
Target sequence (P80244 whole entry, looked up): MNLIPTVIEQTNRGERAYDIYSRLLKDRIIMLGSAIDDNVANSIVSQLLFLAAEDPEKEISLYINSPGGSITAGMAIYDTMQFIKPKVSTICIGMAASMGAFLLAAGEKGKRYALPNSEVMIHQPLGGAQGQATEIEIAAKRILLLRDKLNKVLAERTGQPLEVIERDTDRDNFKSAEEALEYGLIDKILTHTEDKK
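FRET quenching reversal measured ClpP activation: 10 microg/mL B. subtilis ClpP at pH 8 with the FRET-FV decapeptide, read at 430 nm after 320 nm excitation. The 20-min minus 0-min signal was scaled between DMSO/no-enzyme wells and ADEP (5.8 microM final).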
Sfp PPTase inh = Sfp phosphopantetheinyl transferase inhibition | Q9F4F7 | Biochemical Sfp PPTase activity, qHTS | Potency, µM, inactives show max response, negative = inhibition, hits mostly inhibitors | actives 3.5% (n = 310,000); active = well fitted inhibition curve with a large enough effect; inconclusive = small, poorly fitted or top-dose-only effect, or another doubt; inactive = no such curve, though single readings can be large or run the other way;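 also: the enzyme is Sfp with the accession as filed and its product quenches rhodamine fluorescence; potency is read from the fitted curve at half-maximal effect; 0% = enzyme reaction without inhibitor and -100% = no enzyme wells; top concentration of the series not given in the record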
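With Hepes-Na pH 7.6 buffer containing 10 mM MgCl2, Sfp (15 nM) modified BHQ-2-YbbR (12.5 uM) using rhodamine-CoA (5 uM). Two reads 30 minutes apart at 525/598 nm yielded each well's rate.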
TRPV1 potentiator = enhances activation of the human vanilloid receptor TRPV1. potentiation, % at 8.33 µM. TRPV1-expressing cells, Fluo-8 calcium influx, capsaicin EC20 potentiation; host cell line not named in the record; control for the full effect not named in the record. Q8NER1. AID 540277. actives 0.02% (n = 320,000); active means potentiation above 80%; inconclusive means 30% to 80%; inactive means below 30%; also: 0% is about no effect
Target sequence (Q8NER1 whole entry, looked up): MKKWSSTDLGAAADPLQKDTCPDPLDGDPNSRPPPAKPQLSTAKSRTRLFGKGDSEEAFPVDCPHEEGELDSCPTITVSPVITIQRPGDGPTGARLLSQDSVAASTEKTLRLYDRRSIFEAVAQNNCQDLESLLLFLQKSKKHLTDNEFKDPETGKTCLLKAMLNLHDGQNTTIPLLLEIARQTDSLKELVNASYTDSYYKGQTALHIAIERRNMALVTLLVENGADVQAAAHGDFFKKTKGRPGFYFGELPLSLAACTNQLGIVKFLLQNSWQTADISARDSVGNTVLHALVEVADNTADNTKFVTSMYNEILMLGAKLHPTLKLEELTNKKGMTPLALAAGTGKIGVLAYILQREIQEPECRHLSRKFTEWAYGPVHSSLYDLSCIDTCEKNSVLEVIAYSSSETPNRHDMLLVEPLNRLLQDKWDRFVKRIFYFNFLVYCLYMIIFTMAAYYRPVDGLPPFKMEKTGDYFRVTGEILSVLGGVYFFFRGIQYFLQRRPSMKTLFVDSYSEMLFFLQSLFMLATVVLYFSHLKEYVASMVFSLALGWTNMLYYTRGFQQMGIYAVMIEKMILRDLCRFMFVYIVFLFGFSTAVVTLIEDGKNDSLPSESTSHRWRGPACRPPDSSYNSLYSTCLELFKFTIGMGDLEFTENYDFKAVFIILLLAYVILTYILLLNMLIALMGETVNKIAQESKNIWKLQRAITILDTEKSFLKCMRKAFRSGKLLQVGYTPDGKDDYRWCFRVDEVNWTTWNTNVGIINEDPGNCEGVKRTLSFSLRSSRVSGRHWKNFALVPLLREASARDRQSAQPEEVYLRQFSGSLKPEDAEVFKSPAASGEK
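Cells expressing TRPV1 were dye-loaded with Fluo-8 and read kinetically: 10 s baseline, 3 min after compound (agonist portion), then 2 min after EC20 capsaicin (allosteric enhancer portion). Calcium-bound dye fluorescence at 480/520 nm.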
The depositor's hits bear a star; ? = inconclusive; / = not tested or not shown; & = joins results of further samples; [ ] = remark or other dose. This is a random part of the collection; any-hit rate near 4.4%.

Order of results: TRPML1 agonist	Menin-MLL FL inh	PINK1 expr mod	TRPML1 inh	ClpP mod	Sfp PPTase inh	TRPV1 potentiator
1. CCOc1ccc(S(=O)(=O)N2CCN(c3ccc(C)cc3C)CC2)c2ccccc12
    1.3	/	-0.2%	13	-19%	/	/
2. COc1cc(OC)cc(-c2nc3nc(C)c(CCC(=O)Nc4ccc(Cl)cc4)c(C)n3n2)c1
    -0.6	/	1.9%	49	-3.9%	/	/
3. O=C(CNC(=O)c1ccc(F)cc1)N/N=C/c1cc(Br)ccc1OC(=O)/C=C/c1ccco1
    /	1.9	3.0%	/	-1.5%	25µM*	13
4. CCOC(=O)C1=C(C)N=C2SC(C)C(=O)N2C1c1ccccc1 (centres undefined)
    0.1	-2.0	0.5%	11	1.1%	1%	-2
5. CCOC(=O)Cn1c(CN2CCOCC2)nc2c1c(=O)[nH]c(=O)n2C
    -0.2	1.7	-0.8%	-9	-2.4%	5%	-8
6. CCn1nnnc1SCC(=O)N1c2ccccc2CCc2ccccc21
    -0.8	0.8	-0.1%	2	1.2%	10%	-9
7. CS(=O)(=O)N1CCN(c2ccccc2NC(=O)CSc2nnc(-c3ccco3)o2)CC1
    4.1	4.5	-1.4%	17	0.8%	-4%	-1
8. CC1CN=C(N(C(=O)Nc2ccccc2)C(C)C)S1 (centres undefined)
    0.4	0.3	-2.1%	13	-3.7%	23%	5
9. Cc1ccc(SCc2ccc(C(=O)NCc3ccncc3)cc2)cc1
    -0.5	1.2	7.2%[38.3 µM]	1	0.3%	6%	1
10. O=C(NCc1ccc(F)cc1)c1ccc(N2CCOCC2)c([N+](=O)[O-])c1
    2.1	1.7	-1.5%	16	0.0%	10%	-23
11. CCOC(=O)C1(Cc2cccc(OC)c2)CCCN(C(=O)c2ccc(OC)o2)C1 (centres undefined)
    -0.9	/	0.8%	6	1.1%	-1%	-2
12. O=C(CSCC(=O)NC1CC1)Nc1ccccc1
    -0.6	15	-1.4%	2	0.1%	11%	-4
13. O=C(N/N=C/c1ccc(-c2cccc(C(F)(F)F)c2)o1)c1cccc(F)c1
    2.2	-0.8	11%[38.3 µM]	23	-16%	-2%	/
14. Cc1ccc(CN2C(=O)C(O)(c3c[nH]c4ccccc34)c3cc(Cl)ccc32)cc1 (centres undefined)
    0.0	/	-1.5%	-10	0.1%	/	/
15. O=C(NN=Cc1cccc([N+](=O)[O-])c1)c1cc(-c2cccnc2)nc2ccccc12
    1.6	/	4.9%	?	0.0%	/	/
16. O=C(NCCc1ccncc1)c1ccccc1F
    0.4	-2.6	-0.3%	-1	-0.7%	10%	0
17. Cc1ccc(C(=O)CSc2nnc(COc3cccc4cccnc34)o2)cc1
    2.5	3.7	-6.3%[38.3 µM]	0	-6.8%	-12%	-7
18. COc1ccc(CC(=O)OCC(=O)Nc2cccc(Br)c2)cc1
    -0.5	-0.7	3.7%	-6	/	23%	4
19. CCc1nc2nc(C)cc(Nc3cc(C)ccc3C)n2n1
    0.4	/	3.4%	26	-1.2%	/	/
20. Cc1nc(C)c2c(c1C(F)(F)F)-c1ccccc1C2(F)F
    0.0	-5.0	-5.0%[38.3 µM]	0	0.8%	9%	10
21. Cc1nc2ccc(S(=O)(=O)NCC(=O)O)cc2s1
    0.4	0.3	-1.4%	-16	-1.5%	-41%	7
22. CCOC(=O)c1ccccc1NC(=O)CSc1cn(CC(=O)N2CCOCC2)c2ccccc12
    1.2	/	1.9%	20	0.2%	/	/
23. O=C(NCC(c1ccc(F)cc1)N1CCOCC1)c1ccc(-c2ccccc2)cc1 (centres undefined)
    1.3	/	12%	-18	-2.1%	/	/
24. COc1cc(C)c(C)cc1S(=O)(=O)NC1CC(C)(C)NC(C)(C)C1
    -0.5	-0.2	1.2%	10	/	3%	-7
25. COc1ccc(CCNC2CC(=O)N(CCc3ccccc3)C2=O)cc1 (centres undefined)
    0.4	4.1	10%[38.3 µM]	6	-2.4%	-11%	-8
26. Cc1cc(-c2c(C)[nH]n(-c3ccccc3)c2=O)n(-c2ccccc2)n1
    0.8	7.8	7.0%	26	-3.2%	13%	9
27. NC(=S)NNC(=O)Nc1cccc(Cl)c1
    0.0	/	-0.2%	21	-0.6%	14%	-5
28. COC(=O)[C@@]1(Cc2ccccc2)[C@H]2C(=O)N(Cc3ccccc3)C(=O)[C@H]2[C@H]2CN=C(SCc3ccc(C)cc3)N21
    2.6	/	0.1%	11	3.3%	/	/
29. CCOc1ccc(/C=N/n2c(-c3ccccc3)n[nH]c2=S)cc1
    3.0	-0.3	1.0%	0	0.8%	-9%	0
30. CCCN(C(=O)CSCC(=O)Nc1cccc(C)c1)c1c(N)n(Cc2ccccc2)c(=O)[nH]c1=O
    -0.3	/	-2.0%	8	0.6%	15%	-26

Compounds above that have two or more sulfur atoms:
Order of results: TRPML1 agonist	Menin-MLL FL inh	PINK1 expr mod	TRPML1 inh	ClpP mod	Sfp PPTase inh	TRPV1 potentiator
7. CS(=O)(=O)N1CCN(c2ccccc2NC(=O)CSc2nnc(-c3ccco3)o2)CC1
    4.1	4.5	-1.4%	17	0.8%	-4%	-1
21. Cc1nc2ccc(S(=O)(=O)NCC(=O)O)cc2s1
    0.4	0.3	-1.4%	-16	-1.5%	-41%	7

(cont.)
Order of results: TRPML1 agonist	Menin-MLL FL inh	PINK1 expr mod	TRPML1 inh	ClpP mod	Sfp PPTase inh	TRPV1 potentiator
31. Cc1cc(C)c2nc(N3C(=O)C(O)=C(C(=O)c4ccco4)C3c3ccc(O)cc3)sc2c1 (centres undefined)
    0.8	/	6.8%	42	0.4%	/	-14
32. O=C(NCCc1c[nH]c2ccccc12)C(=O)NCC1OCCN1S(=O)(=O)c1ccc(Cl)cc1 (centres undefined)
    -0.3	0.5	-0.3%	-3	1.5%	9%	17
33. CC(C)(C)SCCNC(=O)c1ccc(Cl)c([N+](=O)[O-])c1
    -0.4	2.1	0.7%	-7	-2.8%	-9%	-8
34. CCN(c1ccc(OC)cc1)S(=O)(=O)c1nnc(NC(=O)COc2ccc(F)cc2)s1
    1.0&2.2	/	0.5%&-0.4%	-2&-11	-2.7%&-3.7%	3%	16
35. Cc1ccccc1C(=O)N1CCC(C(=O)N2CCN(S(=O)(=O)c3ccccc3F)CC2)CC1
    0.0	-1.8	1.6%	-18	-2.0%	5%	3
36. COc1ccc(N(CC(=O)Nc2cc([N+](=O)[O-])ccc2C)S(C)(=O)=O)cc1OC
    1.1	2.1	-1.0%	-12	/	12%	-1
37. CC(=O)NC(Cc1ccc(C)cc1)C(=O)NC1CCN(c2ncccc2[N+](=O)[O-])CC1 (centres undefined)
    0.7	-1.4	-1.8%	13	-2.4%	17%	3
38. CN(CC(=O)Nc1ccc(Cl)c(C(F)(F)F)c1)C(=O)CCN1C(=O)C2CC=CCC2C1=O (centres undefined)
    0.4	/	?	8	?	/	-3
39. Cc1c(/N=C(\[O-])Nc2ccc(Br)cc2)sn[n+]1C
    0.4	?	0.6%	6	-1.4%	13%	/
40. Fc1ccccc1/C=N/Nc1ncnc2ccccc12
    -0.2	-3.2	3.2%	1	/	-4%	-6
41. Cc1ccc(-n2ncc(C(=O)NCc3ccc4c(c3)OCO4)c2C2CCN(C(=O)OC(C)(C)C)CC2)c(C)c1
    -0.5	/	-0.9%	-12	-1.5%	/	/
42. CCn1c(=O)cc(SCC(=O)N(C)Cc2ccccc2)c2ccccc21
    1.1	-5.4	1.6%	16	?	-6%	7
43. COc1cc(/C=C/C(=O)OCC(=O)NC(=O)NC(C)(C)C)ccc1OCC#N
    0.2	5.1	-1.1%	3	-0.5%	3%	9
44. COC(=O)c1ccc(C(c2c(N)n(CC(C)C)c(=O)[nH]c2=O)N2CCN(c3ccccc3)CC2)cc1 (centres undefined)
    0.0	0.2	-4.2%	-14	-2.1%	6%	-1
45. Cn1c(=O)oc2cc(S(=O)(=O)Nc3ccc(O)cc3)ccc21
    0.1&-1.1	6.3	-1.2%&-0.9%	0&-23	1.7%&-0.3%	8%	-7
46. O=C(CCS(=O)(=O)c1ccccc1)NCCS(=O)(=O)c1ccccc1
    -0.5	-2.3	-0.5%	17	/	8%	0
47. C/C=C(/C)C(=O)O[C@@H]1c2c(ccc3ccc(=O)oc23)OC(C)(C)[C@@H]1OC(C)=O
    5.3	/	0.7%	-13	3.7%	/	/
48. COc1cccc(C2Nc3ccccc3C(=O)N2c2ccc(F)cc2)c1O (centres undefined)
    1.3	-1.5	-0.6%	2	3.9%	2%	-28
49. O=C(NCCCN1CCc2ccccc2C1)C1CCN(S(=O)(=O)N2CCCC2)CC1
    -0.7	-7.7	0.6%[38.3 µM]	-3	-1.7%	-9%	2
50. CC1(C(=O)NS(=O)(=O)c2ccc(Cl)s2)CCN1C(=O)Cc1ccccc1Cl (centres undefined)
    -0.4	/	0.2%	/	-0.6%	/	/
51. CCOC(=O)c1c(C)[nH]c(C)c1S(=O)(=O)N1CCCC(C(=O)Nc2ccccc2OCC)C1 (centres undefined)
    0.1	/	-1.1%	-10	0.5%	/	/
52. O=C(Nc1ccsc1C(=O)NC1CCCCC1)c1ccc(F)cc1
    1.8	1.9	10%	-5	261%	11%	-10
53. O=C(c1ccc(S(=O)(=O)N2CCCC2)cc1)N1CCC(CN2C(=O)c3cccc4cccc(c34)C2=O)CC1
    2.5	1.3	1.6%	12	/	6%	10
54. COc1cccc(-c2nnc(-c3ccccc3NC(=O)c3cccc(C(F)(F)F)c3)o2)c1
    0.5	/	-3.2%	-10	-21%	/	/
55. CCN(C(=O)CSc1nnc(-c2ccccc2)o1)c1c(N)n(Cc2ccccc2)c(=O)[nH]c1=O
    -1.3	6.0	2.5%	26	/	11%	5
56. Cc1cc(C)c2c(-n3cccc3)c(NC(=O)OCc3ccccc3)sc2n1
    1.2	-2.4	4.7%	42	-5.5%	-16%	6
57. CCCCN(C)CCNC(=O)C1CCN(c2nc3ccc(CC)cc3s2)CC1
    0.4	/	-0.8%	-12	2.2%	/	/
58. C=CCN(C(=O)CSC1=NC(=O)CN1C(C)=O)c1nc(C)c(-c2ccccc2)s1
    1.9	-3.4	8.6%	-12	/	-5%	-1
59. CCOC(=O)[C@@H](NC(=O)CC[C@H]1O[C@@H](n2ccc(=O)[nH]c2=O)[C@H](O)[C@@H]1O)C(C)C
    -0.6	/	0.5%	-1	-1.4%	/	/
